Autofluor counter = flagged as autofluorescent in microsphere protease counterscreen; compound autofluorescence counterscreen, microsphere flow cytometry; active compounds read high; fluorescence intensity (test concentration not listed); actives 3.1% (n = 360,000);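 active = at least 3 SD above the mean of all compounds, about 16000 in these data; inconclusive = too few beads counted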;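 note: 100 nL of 1 mM stock went into each well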
Mtb hypoxia rep = inhibitors of hypoxia-regulated fluorescent reporter in Mycobacterium tuberculosis. AID 1159583. fluorescence inhibition, % (no concentration beside the values). M. tuberculosis hypoxia-regulated fluorescent reporter, fluorescence. actives 0.1% (n = 300,000);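 active = 35 to 45% if threefold the growth effect, above 45% if 1.5-fold the growth effect; inactive = the rest, general growth blockers included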;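 note: wells of about 50 µL received 100 nL stock; 0% = vehicle wells and 100% = reference inhibitor wells; whole bacteria with a GFP reporter of the hypoxia response; strong numbers were not always called active; many hits fall short of the cut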
ugtP null kill = kills S. aureus RN4220 lacking UgtP; AID 1259309; actives 0.54% (n = 330,000); growth inhibition, % (concentration not given with the values); S. aureus RN4220 ugtP deletion, OD600 growth, 16 h; some inactives read as strong as hits;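 active = z-score under -3 and OD600 up to 0.15 on both plates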;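 note: plate controls were untreated wells for no effect and antibiotic for full effect; wells of about 80 µL received 100 nL stock; the first replicate is given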
BJeLR viability = kills HRASV12-expressing BJeLR cells; BJeLR (HRASV12) viability, CellTiter-Glo ATP luminescence, 48 h; reference of the scale not given here; actives 0.17% (n = 300,000); inhibition, % (test concentration not listed);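 active = replicate mean above 50%; inconclusive = above 50% but judged a plate artefact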;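 note: 50 nL library stock added to about 25 µL; numbers are from one replicate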
PrP UTR inh = inhibition of PrP 5' UTR reporter expression. cell-based PrP 5' UTR mRNA reporter, plate reader. inhibition, % (concentration not given with the values). actives 0.35% (n = 340,000);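 active = every replicate at 50% or more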;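 note: 0 = median of the neutral control wells; tested in H4 reporter cells; numbers are from one replicate; inactives centre near -14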
RN4220 kill = S. aureus RN4220 growth inhibition. OD600, 16 h. inhibition, % (concentration not given with the values). actives 0.33% (n = 330,000). AID 1259311;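 active = z-score of -3 or lower and OD600 up to 0.18 on both plates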;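 note: plate controls were untreated cells for no effect and reference antibiotic for full effect; stock transfer was 100 nL into about 80 µL; one replicate is shown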
Mtb hypoxia rep growth = also measured in Mtb hypoxia rep; calls as there; growth inhibition, %; measured here: M. tuberculosis growth (absorbance);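 0% = vehicle and 100% = reference antibiotic; read after six days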
* = called active by the depositor; ? = inconclusive; . = not tested or not shown.

SMILES	Autofluor counter	Mtb hypoxia rep	Mtb hypoxia rep growth	ugtP null kill	BJeLR viability	PrP UTR inh	RN4220 kill
Cc1cc(C)c(C)c(S(=O)(=O)N2C(=S)NC(=O)C2C(C)C)c1C (configuration not stated)	4932	.	.	4	-3	-31	18
CCCC(C(=O)NC(C)(C)C)N(Cc1ccc(F)cc1)C(=O)c1snc(C(N)=O)c1N (configuration not stated)	3115	4	5	9	-14	-29	2.1
Cc1ccc(S(=O)(=O)CCC(=O)OCC(=O)Nc2ncc(Cl)cc2Cl)cc1	8652	10	14	-2	2	-18	1.0
O=C(NC(=S)NC1CCCC1)c1ccccc1	5414	2	4	12	-13	-57	3.7
CC(=O)c1c(C)[nH]c(C(=O)OCc2ccccc2)c1C	2031	5	11	-10	2	-37	2.5
Cc1ccc(SCC(=O)NC(=O)NCc2ccccc2)c(C)c1	2394	7	-3	-2	2	4	3.3
CNc1c([N+](=O)[O-])cnn1-c1ccc(Cl)cc1	9793	7	6	-1	11	-27	3.1
CCn1c(CNc2ccc(OC)cc2)nnc1SCC(=O)Nc1ccc(F)cc1	?	-5	-11	2	-9	-9	-2.1
CN1CCCN(c2ccc([N+](=O)[O-])nc2)CC1	3202	6	1	9	-7	-23	1.3
CCn1nc(NC(=O)C(C)(C)C)c2cc3cccc(C)c3nc21	3064	-10	3	5	-2	-17	-0.4
O=C(NN=Cc1ccccn1)c1cc(-c2ccc(Br)s2)[nH]n1	.	15	2	-13	.	.	0.8
CCOC(=O)C1=C(COC(=O)c2cccnc2SC)NC(=O)NC1C (configuration not stated)	3348	-3	5	4	.	-13	9.8
O=C(COc1nsnc1N1CCOCC1)Nc1ccc(Br)cc1	4250	17	3	-6	-6	-19	-0.5
COC(CNC(=O)c1cc(C(=O)c2c(-c3c(Cl)cccc3Cl)noc2C)c[nH]1)OC	5711	.	.	-1	-4	-11	3.8
Cc1cccc(N2C(=O)CC(N3CCN(Cc4ccc5c(c4)OCO5)CC3)C2=O)c1 (configuration not stated)	2464	4	3	-5	-3	-23	4.2
CCOC(=O)COc1nc(-c2ccc(C)cc2)cc(-c2ccco2)c1C#N	4266	7	9	3	-10	-14	4.8
CC(=O)Nc1ccc(CN2CCC(n3nccc3NC(=O)CCc3ccccc3)CC2)cc1	6862	7	0	8	2	-13	4.6
CC(C)(Oc1ccc(Cl)cc1)C(=O)NC1CCSC1=O (configuration not stated)	7938	8	11	9	4	-14	0.6
C/[N+]([O-])=C\C1C(=O)CCCC1=O	4402	.	.	.	-1	-9	.
CCS(=O)(=O)N1CCC(C(=O)Nc2cccc(C(C)=O)c2)CC1	3486	3	5	-1	3	-14	-2.7
COC(=O)C1C(C(C)C)N(c2ccccc2)OC1(C)O (configuration not stated)	9750	7	15	7	-2	-23	3.3
CC1=C(C)CC(C(=O)NNC(=O)c2ccccc2O)C(C(=O)O)C1 (configuration not stated)	2792	.	.	-1	0	-11	0.8
CCCCCn1c(=O)c(C(=O)Nc2cnccn2)c(O)c2ccccc21	4091	.	.	99*	-17	-23	74
Cn1c(NN)nc2c1c(=O)n(Cc1ccccc1)c(=O)n2C	4434	7	-6	-6	5	-3	4.4
Cc1ccccc1CNc1ncnc2cc(Cl)ccc12	3624	9	-1	-8	-6	-8	-3.5
CC(NC(=O)CCCc1c[nH]c2ccccc12)c1ccc(F)cc1 (configuration not stated)	3948	9	-3	0	-5	6	0.8
Fc1ccc(N/N=C/c2ccc(N3CCOCC3)cc2)c(F)c1	4021	.	.	.	-1	-132	.
COc1ccc(CSc2nnc(C)n2N)cc1	4636	.	.	1	3	-27	0.3
CC(=NNC(=O)c1c(Br)c(C)nn1C)c1ccc(NC(=O)c2ccoc2C)cc1	.	0	11	2	.	.	6.1
O=C(Cc1ccccc1)OCC(=O)c1ccc(F)cc1	4677	16	2	9	.	-11	3.5
CCOc1ccc(/C=N/NC(=O)CSc2ccccn2)cc1O	4509	.	.	.	-2	-13	.
COc1ccccc1/C=C/C=NNC(=O)CN1CCN(S(=O)(=O)c2ccc(C)cc2)CC1	.	-11	6	0	.	.	0.4
CC(C)(C)NC(=O)c1ccc2c(c1)N(CC(=O)N1CCCC1)C(=O)C(C)(C)O2	2891	-11	-7	5	-3	-48	1.2
CC1(C)Cc2c(sc(/N=C/N3CCCC3)c2C#N)C(C)(C)N1	3673	.	.	.	0	-43	.
Cc1ccc(-n2nc(C)c(/C=N/n3c(C)n[nH]c3=S)c2Cl)cc1	4053	.	.	.	17	-1	.
COc1ccc(CNS(=O)(=O)c2cc(-c3cc(C)no3)ccc2C(C)C)cc1	5504	-5	6	2	4	0	-3.4
Cc1cccc(N2CCN(C(=O)C3CCN(c4ncnc5c4nc4n5CCCCC4)CC3)CC2)c1C	5351	6	10	-3	2	-4	-11
CCC(C)NS(=O)(=O)c1ccc(OCC(=O)NCc2ccccn2)cc1 (configuration not stated)	4579	6	1	7	4	-14	8.1
COc1ccc(NC(=O)C2CCCN(c3nc(C)cc(C)n3)C2)cc1 (configuration not stated)	4637	6	10	17	-18	-3	5.6
CN(C1CCS(=O)(=O)C1)S(=O)(=O)c1ccccc1[N+](=O)[O-] (configuration not stated)	1962	-10	-7	5	6	-22	4.1
CCCCCCn1c(N2CCN(c3ccccc3)CC2)nc2c1c(=O)[nH]c(=O)n2C	3283	14	0	-1	-4	0	8.8
O=C(COc1ccc2ccccc2c1)NNC(=O)Cc1ccccc1	2037	-6	-5	4	-9	-14	2.6
CCCNC(=O)C1CC(c2ccccc2[N+](=O)[O-])=NO1 (configuration not stated)	4053	7	13	6	-2	-4	5.9
Cc1ncc(NS(=O)(=O)c2ccc(N)cc2)nc1C	3528	.	.	34	.	-13	0.5
CCCN(CC(=O)Nc1ccccc1C)C(=O)c1cc(=O)[nH]c2ccccc12	3088	-7	3	7	-1	-20	5.5
Cc1ccc(NC(=O)/C(CN(C)C)=N\O)cc1	3095	.	.	.	-4	-31	.
Cc1cccc(NC2(C(F)(F)F)N=C3SCCN3C2=O)n1 (configuration not stated)	9346	4	6	-3	-5	-28	5.3
CC(=O)Nc1ccc(-c2csc(NC(=O)Nc3ccccc3)n2)cc1	4032	-1	1	-23	9	-27	0.5
O=C1C(C23CC4CC(CC(C4)C2)C3)C(=O)N(c2ccccc2)N1c1ccccc1	7243	9	7	-7	-2	-24	4.4
COc1cc2c(cc1OC)CN(C(=O)CCN1C(=O)C3CCCCC3C1=O)CC2 (configuration not stated)	3263	7	9	6	6	-14	-3.0
COc1ccc(C[C@H]2CN3C(=NC[C@@H]3Cc3ccccc3)N2CCNC(=O)c2ccc(C)c(Br)c2)cc1	3915	.	.	.	3	-20	.
O=C(NCc1ccco1)c1ccc(COc2ccccc2[N+](=O)[O-])o1	6368	-4	5	3	-8	-4	3.1
Cc1cc(NC(=O)CSc2nnnn2-c2ccccc2C)no1	6209	-2	-2	-5	-2	-13	-4.3
COc1ccc(-n2nc(C(=O)NCC(=O)NCc3ccccc3OC)c3ccccc3c2=O)c(OC)c1	4519	8	-5	2	-5	-12	-0.8
Cc1ccc(C)c(C(=O)NC(C)c2ccc(-n3ccnc3)cc2)c1 (configuration not stated)	5452	13	5	0	5	-26	6.0
Cc1ccc(C)c(S(=O)(=O)/N=C(/Nc2ccccc2)c2ccccc2)c1	4100	6	11	2	.	-6	2.6
COC(=O)c1ccc(/C=C/c2nc3ccccc3c(=O)[nH]2)cc1	4910	5	3	-1	7	-59	-1.6
Cc1ccc(C2N(c3ccccc3)C(=S)N3CCCN23)cc1 (configuration not stated)	2762	.	.	-3	1	-24	-4.9
CN1/C(=C\C(=O)c2ccccc2Cl)c2ccccc2CC1(C)C	1950	1	5	4	-14	-16	8.6
COc1ccc(NC(=O)CSc2nnc(-c3ccccc3C)n2C)cc1	19446*	-8	-16	-2	-19	-10	5.2

(more compounds)
SMILES	Autofluor counter	Mtb hypoxia rep	Mtb hypoxia rep growth	ugtP null kill	BJeLR viability	PrP UTR inh	RN4220 kill
COc1cc(-c2cc(C(=O)NCc3ccc(S(N)(=O)=O)cc3)c3ccccc3n2)cc(OC)c1OC	4064	-1	11	-1	-9	9	-0.1
Cc1oc(C2CC2)cc1C(=O)O	19572*	-4	3	4	2	-19	6.7
Cc1ccc(-c2noc(C3CCCN(C(=O)c4ccccc4Br)C3)n2)cc1 (configuration not stated)	4271	5	3	24	-8	-16	2.8
Brc1ccc(-c2noc(C3CCCCC3)n2)cc1	2565	-2	10	69	0	-80	-1.6
CCOC(=O)c1[nH]c2ccccc2c1CCCN1C(=O)c2ccccc2C1=O	3338	2	0	-36	-13	-5	0.3
OC1(c2ccc(Cl)cc2)CN(c2ccccc2)C2=[N+]1CCS2 (configuration not stated)	4433	5	5	3	9	-6	8.4
Cc1nn(CCO)c(C)c1Oc1ccccc1O	2984	8	2	-1	0	-5	10
ON=Cc1ccc2cccc(O)c2n1	.	0	11	-5	.	.	4.3
Cc1cccn2c(=O)c3cc(C(=O)O)n(C)c3nc12	1907	.	.	.	3	-7	.
Cc1ccc(C)n1-c1ccc(C(=O)Nc2ccccc2)cc1	3946	-5	4	-6	-16	-54	1.5
Cc1c(C(=O)N2CCN(C3CCS(=O)(=O)C3)CC2)oc2c(F)cccc12 (configuration not stated)	3922	-12	4	-5	.	7	-0.5
O=C(COC(=O)c1ccc([N+](=O)[O-])s1)Nc1ncc(C(F)(F)F)cc1Cl	2564	10	11	-18	-4	-13	12
COc1ccc(CNC(=O)N[C@H](C(=O)O)C(C)C)cc1OC	4900	-5	2	6	1	-1	2.6
O=C(NCC1COc2ccccc2O1)c1ccc(-n2cncn2)c([N+](=O)[O-])c1 (configuration not stated)	?	5	8	8	-8	-25	-1.6
CCN(CC)S(=O)(=O)c1ccc(C2CNC(=O)C2)cc1 (configuration not stated)	5365	.	.	-2	-7	-15	7.4
CCN(c1ccccc1)S(=O)(=O)c1ccc(Oc2ccccc2)c(N)c1	2816	7	-6	81	.	-19	4.9
Cc1ccc(N2C(=O)c3ccccc3C2=O)cc1C	5146	.	.	-5	-12	-12	-2.2
Cc1cc(C)n(C(=O)c2c([N+](=O)[O-])cnn2C)n1	9482	9	17	6	3	-21	2.5
CCOC(=O)c1oc2ccc(CNCCO)c(Cl)c2c1C	3592	.	.	17	2	-56	4.3
CN(c1ccccc1)S(=O)(=O)c1cccc(C(=O)OCC(=O)NCc2ccco2)c1	4106	-1	2	6	17	-28	9.8

Quoted at random: 2 compounds from above, in no set order.
SMILES	Autofluor counter	Mtb hypoxia rep	Mtb hypoxia rep growth	ugtP null kill	BJeLR viability	PrP UTR inh	RN4220 kill
COc1cc2c(cc1OC)CN(C(=O)CCN1C(=O)C3CCCCC3C1=O)CC2 (configuration not stated)	3263	7	9	6	6	-14	-3.0
CCCCCn1c(=O)c(C(=O)Nc2cnccn2)c(O)c2ccccc21	4091	.	.	99*	-17	-23	74

Following part.
SMILES	Autofluor counter	Mtb hypoxia rep	Mtb hypoxia rep growth	ugtP null kill	BJeLR viability	PrP UTR inh	RN4220 kill
CC1(C)Cc2c(cnn2-c2ccc(F)cc2)C(NC(=O)CN2CCCCC2=O)C1 (configuration not stated)	5754	2	12	2	3	-16	-1.5
CCn1c(SCC(=O)N2CCc3ccccc3C2)nc2c1c(=O)n(C)c(=O)n2C	9429	7	6	-7	-4	-33	2.9
CCOc1ccc(CCNC(=O)CN2C(=O)COc3ccc(S(=O)(=O)N4CCOCC4)cc32)cc1	5606	8	12	6	-13	-3	1.6
C[C@H](NC(=O)c1ccc(Cl)cc1)C(=O)NCCc1ccc(S(N)(=O)=O)cc1	2507	.	.	.	12	-17	.
CCOc1ccc(NC(=S)NC(C)c2cccs2)cc1 (configuration not stated)	2144	3	-2	12	6	-22	5.0

A different layout for 2 compounds above:
CC1(C)Cc2c(cnn2-c2ccc(F)cc2)C(NC(=O)CN2CCCCC2=O)C1 (configuration not stated)
  Autofluor counter: 5754
  Mtb hypoxia rep: 2
  Mtb hypoxia rep growth: 12
  ugtP null kill: 2
  BJeLR viability: 3
  PrP UTR inh: -16
  RN4220 kill: -1.5

CCn1c(SCC(=O)N2CCc3ccccc3C2)nc2c1c(=O)n(C)c(=O)n2C
  Autofluor counter: 9429
  Mtb hypoxia rep: 7
  Mtb hypoxia rep growth: 6
  ugtP null kill: -7
  BJeLR viability: -4
  PrP UTR inh: -33
  RN4220 kill: 2.9

Compound activity: PubChem, several laboratories

This is a random part of the collection (roughly 4% active in at least one column).
